RGS16-Gao HTS – modulators of RGS16 binding to Galphao, primary screen, biochemical, human proteins, multiplexed bead flow cytometry. Regulator of G-protein signaling 16 (Homo sapiens) + Guanine nucleotide-binding protein …. bead-based flow cytometry RGS16-Galphao binding, fluorescence; actives lie on both sides. binding response (% of control), % at 10 µM. 0.38% of 220,000 active. AID 1441, 2008;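 active means below 25% or above 175%, edge rows of some plates excepted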;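 further: Galphao activated by GDP with aluminum fluoride before binding; 100% = wells without compound and 0% = beads without RGS; some results beyond the cut were filed as inactive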
GALR2 ag – GALR2 receptor agonists, primary screen, cell-based | GALR2-expressing cells, agonist activation read-out | 0.48% of 140,000 active | Galanin receptor type 2 (Homo sapiens), O43603 | activation, %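 (tested at 5 µM)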;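 active means above mean plus 3 SD of all compounds, about 5% in these data, not always enough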;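 further: 0% = vehicle buffer wells and 100% = reference agonist at full effect; tested in CHO reporter cells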
PKD1 kinase inh – inhibitors of human PKD1 kinase, biochemical, fluorescence polarization | inhibition, %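 (about 10 µM by stock and volumes)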 | 0.056% of 200,000 active | AID 797, 2007 | PKD1 kinase fluorescence polarization assay;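 active means inhibition of 50% or more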;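 further: controls were vehicle for no effect and a reference inhibitor for full effect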
Target sequence (Q15139 whole entry, looked up): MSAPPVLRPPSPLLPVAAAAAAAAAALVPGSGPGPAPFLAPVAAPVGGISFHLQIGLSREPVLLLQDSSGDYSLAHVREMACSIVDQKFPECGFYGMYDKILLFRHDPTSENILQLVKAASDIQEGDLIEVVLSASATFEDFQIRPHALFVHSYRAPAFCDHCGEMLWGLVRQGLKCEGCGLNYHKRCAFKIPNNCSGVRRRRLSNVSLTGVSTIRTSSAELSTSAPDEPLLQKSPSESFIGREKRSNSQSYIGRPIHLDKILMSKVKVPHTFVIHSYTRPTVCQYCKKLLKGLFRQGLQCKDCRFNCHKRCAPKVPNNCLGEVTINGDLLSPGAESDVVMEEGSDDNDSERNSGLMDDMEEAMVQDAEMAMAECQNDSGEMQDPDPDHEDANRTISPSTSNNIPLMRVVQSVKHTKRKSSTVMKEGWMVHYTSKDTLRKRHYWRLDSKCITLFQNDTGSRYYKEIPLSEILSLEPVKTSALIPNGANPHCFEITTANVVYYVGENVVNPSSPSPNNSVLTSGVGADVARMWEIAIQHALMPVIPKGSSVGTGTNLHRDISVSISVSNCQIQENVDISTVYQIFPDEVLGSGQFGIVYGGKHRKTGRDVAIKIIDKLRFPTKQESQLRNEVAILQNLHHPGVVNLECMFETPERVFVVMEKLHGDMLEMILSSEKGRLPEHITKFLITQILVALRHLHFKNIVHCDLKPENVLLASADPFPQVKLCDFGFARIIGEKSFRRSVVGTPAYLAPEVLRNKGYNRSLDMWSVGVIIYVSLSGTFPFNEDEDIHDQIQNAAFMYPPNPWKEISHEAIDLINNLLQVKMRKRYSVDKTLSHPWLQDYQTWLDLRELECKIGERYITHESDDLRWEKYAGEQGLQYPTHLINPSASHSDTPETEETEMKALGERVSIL
HSV augment – enhancers of HSV replication in host cells, fold increase, host cell viability; HSV replication augmentation in cells; AID 1956, 2009; 0.005% of 220,000 active; maximum fold increase;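 active means peak rise of 1.5-fold or more in the series; inconclusive means self-fluorescent or not available for retest; tested in PC3 cells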;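 further: first round at 10 µM; read as green reporter fluorescence; hits show the peak of a series up to 25 µM; 1 = signal of infected wells without compound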
INS promoter inh – inhibitors of insulin promoter-driven GFP, primary screen, imaging, TRM-6 cells (human fetal islet line), eGFP reporter, cell count; inhibition, % at 2 µM; reporter expression induced with tamoxifen; AID 1273, 2008; 0.9% of 130,000 active;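 active means inhibition above the mean plus 3 SD, with well images judged a real hit on visual review, cut at about 60% in these data, passing the limit was not always enough; inconclusive means inhibition over the cutoff but images rejected on review; inactive means inhibition not above the cutoff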
INS promoter inh cell count – also measured in INS promoter inh; calls as there; normalized cell count, %; measured here: cell count, toxicity; reference of the scale not given here;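 cells exposed to compound for 48 h; stained nuclei by imaging scaled within each plate; lower means fewer cells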
HSV augment primary fold – second read-out of HSV augment, no call of its own (marks repeat the call); fold increase; compound at 10 µM; measured here: primary screen fold increase 10 uM; tested in PC3 cells;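 GFP signal in the first replicate; 1 = infected wells without compound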
* = called active by the depositor; i = inactive; u = inconclusive; x = not tested or not shown. Rows were taken by chance (roughly 1.2% active in at least one column).

SMILES	RGS16-Gao HTS	GALR2 ag	PKD1 kinase inh	HSV augment	HSV augment primary fold	INS promoter inh	INS promoter inh cell count
O=C(NCc1ccc2c(c1)OCO2)C1Cc2ccccc2CN1C(=O)c1ccco1 (stereo not given)	101	x	0	i	1	0	115
CCN(CC)c1ccc2c(C)c(Cl)c(=O)oc2c1	101	x	-5	i	1.1	x	x
O=C1c2cccc3c([N+](=O)[O-])ccc(c23)C(=O)N1c1ccccn1	97	2.1	-2	x	x	x	x
O=C(c1ccc(Cl)cc1)n1c(NCc2ccccc2)n[nH]c1=S	105	x	0	i	0.95	x	x
CN(CC(=O)Nc1ccc(S(=O)(=O)N2CCCC2)cc1)Cc1ccc(Cl)cc1	98	0.4	-12	i	0.88	-17	114
CC1Cc2nc(SCC(=O)NCc3ccco3)n(Cc3ccccc3)c(=O)c2S1 (stereo not given)	102	0.2	-10	i	0.86	-90	113
CCn1nc2cc(C(=O)NCCc3cccs3)ccc2c1OC	100	-1.2	3	i	0.84	x	x
Cn1c(SCC(=O)Nc2nccs2)nnc1-c1ccncc1	94	-3.5	12	i	1.1	50	145
CCOC(=O)c1c(C)n(C)c2ccc(OC)c(NC(=O)CN3CCCCC3)c12	101	-0.8	4	x	x	x	x
CCCCC(=O)Nc1nnc(CCOC)s1	106	x	-2	i	0.88	x	x
Cc1onc(-c2c(F)cccc2Cl)c1C(=O)OCC(=O)c1c(N)n(C)c(=O)n(C)c1=O	100	x	3	i	0.61	x	x
Cc1cc2nc(/N=C(\N)NC(=O)C(C)C)nc(C)c2cc1C	103	x	x	i	0.71	x	x
CC(C)Sc1nc(NCc2ccco2)c2c3c(sc2n1)COC(C)(C)C3	90	-0.3	4	i	0.89	6	80
Cc1ccc2oc(=O)c(/C=C(\O)C(C)(C)C)nc2c1	102	x	-9	i	0.82	9	82
O=C(NCc1ccc2c(c1)OCO2)c1n[nH]c(=O)c2ccccc12	102	x	-6	i	0.85	-73	125
O=C(CSc1nc2ccccc2s1)N1CCOCC1	54	-1.2	6	i	1.1	-111	132
CCO[C@@H]1OC(C(=O)NCc2ccccc2)=C[C@H](c2ccc(Br)cc2)[C@H]1CCCO	94	x	-11	i	0.67	x	x
COc1cccc(CNc2ccc(Br)cn2)c1O	95	0.1	-5	i	0.82	x	x
COCCNC(=O)c1c[nH]c2ccc(S(=O)(=O)N3CCC4(CC3)OCCO4)cc2c1=O	99	-0.7	-6	i	1	-22	85
Cc1cc(C)c2c(NC(=O)C3CC3)nn(C)c2n1	100	x	-1	i	0.96	x	x
CCOc1ccc(-n2c(C)nc3c(cnn3-c3ccc(Cl)cc3)c2=O)cc1	106	-1.1	-7	i	0.96	38	101
O=C(NNS(=O)(=O)c1ccccc1)c1cnn(-c2ccc(Cl)cc2)c1C(F)(F)F	124	x	x	i	1	x	x
CC1=NN(c2ccccc2)C(=O)/C1=C\N1CC(C)OC(C)C1 (stereo not given)	106	-0.7	3	i	0.75	3	173
O=C(N/N=C/c1ccc(OCCCF)cc1)c1ccc(C(F)(F)F)cc1	93	x	-1	i	0.96	20	133
Cc1nc2ccccc2n1/C(=N/S(=O)(=O)c1ccc(Br)cc1)c1ccccc1	64	-0.6	-11	i	0.98	7	116

Next results follow.
SMILES	RGS16-Gao HTS	GALR2 ag	PKD1 kinase inh	HSV augment	HSV augment primary fold	INS promoter inh	INS promoter inh cell count
CCOC(=O)c1nc(N)c(=O)n(-c2ccccc2)n1	97	-0.6	-3	i	1.1	x	x
Cc1cccc(N2CCN(C(=O)c3ccc(CNc4c(N5CCC(C)CC5)c(=O)c4=O)cc3)CC2C)c1 (stereo not given)	99	x	4	x	x	-14	99
COc1ccc(C2CC(=O)C(C=NCCN3CCN(C(=S)Nc4ccccc4)CC3)=C(O)C2)cc1OC (stereo not given)	102	x	-1	i	0.95	x	x
CC(C)Oc1ccc(/C(O)=C2/C(=O)C(=O)N(CCN(C)C)C2c2cccs2)cc1 (stereo not given)	108	-1.4	0	i	0.91	43	132
O=C(NC1CCCC1)C(c1ccco1)N(Cc1ccccc1)C(=O)c1csnn1 (stereo not given)	111	0.3	1	i	0.86	-64	109
O=C(CCNS(=O)(=O)c1ccc(Br)s1)NCc1ccccc1Cl	93	x	9	i	1	30	49
O=C1CC(c2ccc(F)cc2)Sc2nc(C34CC5CC(CC(C5)C3)C4)nn21 (stereo not given)	96	-0.9	5	i	1.2	x	x
COc1ccc(Cl)cc1NC(=S)NCc1cccs1	103	x	-2	i	0.87	55	79
CC(=O)N1N=C(c2ccc(C)c([N+](=O)[O-])c2)OC1(C)C	103	x	x	i	1.1	x	x
COc1ccc(CC(=O)NC2=NCCS2)cc1	100	-2.2	5	i	0.62	-60	113
COc1ccc(C[C@H]2CN3C(=NC[C@H]3Cc3ccccc3)N2CCNC(=O)c2ccc(C)c(Br)c2)cc1	110	x	x	i	1.1	x	x
Cc1ccc(CNC(=O)C2CCCN(C(=O)N(C)C)C2)cc1 (stereo not given)	103	-1.6	-3	i	0.94	-41	137
CCCCN1C(=O)C(=O)N(CC(=O)NC2CCCc3ccccc32)C1=O (stereo not given)	98	x	5	i	0.96	x	x
Cc1ccc(-c2ccc(CCC(=O)O)n2CC2CCCO2)cc1 (stereo not given)	97	-0.8	-2	i	0.78	24	59
Oc1ccc(CN2CCCc3ccccc32)c2cccnc12	90	-2.5	5	i	1	14	41
CS(=O)(=O)N1CCCC(C(=O)NCCCN2CCC(Cc3ccccc3)CC2)C1 (stereo not given)	109	1.7	0	i	0.98	-8	118
CCOc1ccc(Nc2c3c(nc4ncnn24)CC(C)CC3)cc1 (stereo not given)	101	-0.3	-6	i	1	45	48
Cc1ccc(-n2c(SCC(=O)NCCN3C(=O)CSC3=O)nnc2-c2cccc(C)c2)cc1	103	-1.1	8	i	1	-62	98
Cc1ccc(C(=O)NNc2cc(N3CCCC3)nc(N3CCCC3)n2)cc1	105	-1.7	1	i	1	23	82
O=C(Cn1c(C(F)(F)F)nc2ccccc21)c1ccc(Br)cc1	77	-2.8	2	i	0.9	x	x
CCOc1cc(-c2nc(C)c(C(C)=O)n2O)ccc1OCC(=O)Nc1ccccc1	112	x	-3	i	0.96	67	76
COc1ccc(Oc2cc(C(F)(F)F)nc(N(C)C)n2)cc1	102	x	1	i	0.91	x	x
Cc1ccc(CC(CC(=O)O)C(=O)NCC23CC4CC(CC(C4)C2)C3)cc1 (stereo not given)	100	x	0	i	0.97	x	x
CCc1cccc(CC)c1NC(=S)NCc1ccc2c(c1)OCO2	114	0.1	-3	i	0.91	26	146
COc1ccccc1-n1cnnc1SCC(=O)NC1CCS(=O)(=O)C1 (stereo not given)	100	x	-5	i	0.98	21	64

The results go on.
SMILES	RGS16-Gao HTS	GALR2 ag	PKD1 kinase inh	HSV augment	HSV augment primary fold	INS promoter inh	INS promoter inh cell count
COCc1cc(=O)[nH]c(-c2ccccc2)n1	101	x	2	i	0.97	x	x
c1ccc(-c2nc(N3CCCCC3)nc3ccccc23)cc1	110	0.9	-2	i	0.91	6	90
COc1ccccc1CN1CCNC(=O)C1CC(=O)NCCOc1cccnc1 (stereo not given)	98	x	-6	i	0.92	x	x
O=C(CCCSc1nnnn1-c1ccccc1)c1ccc(F)cc1	18	-1.9	1	i	1.1	x	x
O=C1c2oc3ccccc3c(=O)c2C(c2cccc(O)c2)N1c1ccccn1 (stereo not given)	101	-0.8	-3	i	1	x	x
Cc1cc(C)n2nc(C(=O)Nc3ccc(S(=O)(=O)N4CCCC4)cc3)nc2n1	94	x	x	i	0.88	x	x
COCCCn1c(SCC(N)=O)nnc1-c1ccccc1	103	-3.4	9	i	0.88	x	x
Cn1c(=O)c2c(nc(N3CCOCC3)n2CCSc2ncccn2)n(C)c1=O	158	-3.5	2	i	0.96	x	x
Cc1c(NC(=O)CSc2nccn2C)c(=O)n(-c2ccccc2)n1C	107	-1.8	-9	i	1.1	-18	120
COc1cccc(/C=N\NC(=O)C2C(=O)NCC2c2ccccc2)c1O (stereo not given)	96	-1.4	-1	i	0.93	-20	112
Cc1ccccc1C(=O)NC(=S)Nc1ccc(S(=O)(=O)N2CCN(C)CC2)cc1	98	-0.3	2	i	0.85	3	70
COc1cc(CC(=O)Nc2ccc(S(=O)(=O)NC3=NCCCCC3)cc2)cc(OC)c1OC	104	x	-8	i	0.72	x	x
COc1ccc(C(=O)NCC(C)C)c(OC)c1	101	-2.4	2	i	1	25	49
COc1ccccc1/C=C1\SC(=S)N(CCC(=O)NC2=NCCS2)C1=O	129	-0.8	52*	i	0.96	17	42
O=[N+]([O-])c1cccc(/C=N/NC2=NS(=O)(=O)c3ccccc32)c1	106	x	1	i	1	30	184
CCCC(=O)N=C1SC2CS(=O)(=O)CC2N1c1ccc(-c2nc3ccc(C)cc3s2)cc1 (stereo not given)	100	0.2	-7	i	0.95	x	x
CCN(Cc1ccncc1)C(=O)c1ccccc1NS(=O)(=O)c1ccc(Br)cc1	105	x	x	i	1.3	x	x
CCNC(=O)CN1C(=O)NC2(CCCCCC2)C1=O	99	-0.8	-1	i	0.86	-21	99
CC(C)OC(=O)C1=C(N)N2C(=O)CSC2=C(C(=O)OC(C)C)C1	77	-1.9	-6	i	1.1	0	132
CCOC(=O)N1CCN(C(=O)Nc2ccc(Cl)cc2)CC1	106	-3.2	-2	i	1.1	-38	90
O=C(CN1CCN(S(=O)(=O)c2ccc(Cl)s2)CC1)NCc1ccc(Cl)cc1	104	-3.0	-7	x	x	-38	134
COC(=O)/C=C1\S/C(=N/N=C/c2ccccc2)NC1=O	103	-2.3	-8	i	1	39	112
O=C(CCN1CCOCC1)NNC(=S)NC(=O)c1ccccc1	93	x	2	i	0.81	x	x
CCC(CC)C(=O)Nc1ccc(S(=O)(=O)Nc2nccs2)cc1	101	x	-4	i	0.95	-17	54
COc1cc(NC(=O)c2ccccc2C)c(OC)cc1NC(=O)CN1CCOCC1	103	x	6	i	1	x	x

Pulled by compound from the entries so far (six):
SMILES	RGS16-Gao HTS	GALR2 ag	PKD1 kinase inh	HSV augment	HSV augment primary fold	INS promoter inh	INS promoter inh cell count
CCCC(=O)N=C1SC2CS(=O)(=O)CC2N1c1ccc(-c2nc3ccc(C)cc3s2)cc1 (stereo not given)	100	0.2	-7	i	0.95	x	x
COc1ccccc1CN1CCNC(=O)C1CC(=O)NCCOc1cccnc1 (stereo not given)	98	x	-6	i	0.92	x	x
Cc1c(NC(=O)CSc2nccn2C)c(=O)n(-c2ccccc2)n1C	107	-1.8	-9	i	1.1	-18	120
COc1cc(CC(=O)Nc2ccc(S(=O)(=O)NC3=NCCCCC3)cc2)cc(OC)c1OC	104	x	-8	i	0.72	x	x
CCOC(=O)N1CCN(C(=O)Nc2ccc(Cl)cc2)CC1	106	-3.2	-2	i	1.1	-38	90
Cn1c(=O)c2c(nc(N3CCOCC3)n2CCSc2ncccn2)n(C)c1=O	158	-3.5	2	i	0.96	x	x

Continued:
SMILES	RGS16-Gao HTS	GALR2 ag	PKD1 kinase inh	HSV augment	HSV augment primary fold	INS promoter inh	INS promoter inh cell count
Cc1cccc(N2C(=O)CN(Cc3sccc3C)C2=S)c1	106	0.3	-8	i	1.1	29	66
O=C(CSc1nnc2ccccn12)N1CCc2ccccc21	107	x	-1	i	1	17	136
Cc1cccc2cc(CN(Cc3ccccc3)C(=O)N(C)C)c(=O)[nH]c12	96	-2.7	15	i	0.89	-27	142
CCOc1ncccc1C(=O)OCc1cn2cc(Cl)ccc2n1	98	-0.6	-7	i	0.89	x	x
O=c1c2c(ncn2C2CCCC2)n(Cc2ccccc2)c(=O)n1CCOc1ccccc1	114	0.5	-4	i	1	x	x
COc1cc(N2CCCC2)c(OC)cc1/C=C1/NC(=S)NC1=O	108	-1.2	-22	u	x	-154	78
NC(=O)Nc1ccc(Cl)cc1	98	x	x	i	0.94	x	x
CCCCCc1cc(=O)[nH]c(=S)[nH]1	94	x	x	i	0.81	x	x
O=C(Oc1ccccc1)c1cccc(COC(=O)c2cnccn2)c1	101	-2.1	-8	i	0.97	x	x
COCCn1c(SCC(=O)Nc2ccccc2OC)nc2c(oc3ccccc32)c1=O	84	x	-9	i	0.97	x	x
N#Cc1c(NC(=O)c2cccnc2)sc2c1CCC2	103	-1.5	-8	i	0.9	-6	74
CCOc1cc(-c2c(C#N)c(N)nc3c2CCCC3C)ccc1O (stereo not given)	103	1.3	9	i	0.88	-9	161
O=C(c1ccc(Cl)cc1)c1coc2ccc(O)cc12	104	-0.1	-8	i	0.95	-5	105
COC(=O)c1ccc(-n2cncn2)c(F)c1	97	-2.0	-1	i	0.93	39	117
Cc1nc2cccc(C(=O)NC3CCCCC3)c2o1	105	-1.0	1	i	1	10	88
